ALR inh – inhibitors of human ALR sulfhydryl oxidase, primary screen, biochemical, H2O2 detection, HRP-luminol luminescence, single point; FAD-linked sulfhydryl oxidase ALR (Homo sapiens), P55789; purified ALR, DTT oxidation; inhibition, % (test concentration not listed); 290,000 tested, 3.8% active; AID 485317, 2010;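 active means mean and each replicate at 75% or more; inconclusive means only one of the two met; inactive means neither met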;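 further: stock transfer was 7.5 nL into about 7.5 µL; 0% = neutral wells and 100% = wells with inactivated enzyme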
Target sequence (P55789 whole entry, looked up): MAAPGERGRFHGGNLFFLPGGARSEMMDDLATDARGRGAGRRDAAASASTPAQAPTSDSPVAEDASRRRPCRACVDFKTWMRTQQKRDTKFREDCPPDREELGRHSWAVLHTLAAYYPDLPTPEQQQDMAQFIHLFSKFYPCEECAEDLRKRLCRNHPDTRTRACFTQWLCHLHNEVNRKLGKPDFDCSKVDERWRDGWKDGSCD
MLL AF4-AF9 inh – inhibitors of AF4 peptide binding to AF9, primary screen, biochemical, AlphaScreen, biotin-AF4 peptide, FLAG-AF9, single point; 350,000 tested, 0.47% active; AID 651704, 2012; inhibition, % at 10 µM;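 active means every replicate reaching a set inhibition limit, whatever the replicate mean, cut at about 25% in these data; inconclusive means mean inhibition reaches that limit but some replicates miss it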;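 further: 0% = plate neutral control median and 100% = total signal loss; the record names both 10 and 1 µM as test concentration; the first replicate is given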
Target sequence (P42568 whole entry, looked up): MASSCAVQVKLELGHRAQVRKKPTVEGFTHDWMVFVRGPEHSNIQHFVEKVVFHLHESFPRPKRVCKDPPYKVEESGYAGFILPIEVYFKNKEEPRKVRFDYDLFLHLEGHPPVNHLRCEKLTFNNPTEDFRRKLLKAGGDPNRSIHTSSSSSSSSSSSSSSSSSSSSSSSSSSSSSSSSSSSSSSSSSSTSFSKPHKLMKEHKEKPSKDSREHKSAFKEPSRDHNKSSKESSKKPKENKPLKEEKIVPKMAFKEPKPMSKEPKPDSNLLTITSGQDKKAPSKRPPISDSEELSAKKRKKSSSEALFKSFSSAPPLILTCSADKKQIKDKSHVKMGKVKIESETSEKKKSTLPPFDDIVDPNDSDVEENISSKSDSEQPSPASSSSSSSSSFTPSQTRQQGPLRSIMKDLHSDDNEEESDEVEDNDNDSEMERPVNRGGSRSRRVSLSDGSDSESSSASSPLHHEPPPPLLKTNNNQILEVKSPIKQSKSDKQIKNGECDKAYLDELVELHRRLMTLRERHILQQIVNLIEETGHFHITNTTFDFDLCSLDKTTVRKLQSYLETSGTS
RanGTP-Imp inh – inhibitors of RanGTP-importin-beta interaction, primary screen, biochemical, FRET, CFP-Ran, YFP-importin-beta, homogeneous. cell-free CFP-Ran/YFP-importin-beta FRET ratio. inhibition, % (concentration not given with the values). 300,000 tested, 1.1% active. AID 2216, 2009;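 active means most replicates above 15%; inconclusive means exactly half above 15%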;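 further: 0% = DMSO wells and 100% = Ran loaded with GDP instead of GTP; wells of about 40 µL received 100 nL stock; the first replicate is given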
rRNA inh HTS – reduced GFP signal of wild-type E. coli, primary screen, bacterial rRNA inhibitor project, GFP/RFP fluorescence, OD600, single point. AID 720706, 2013. GFP signal change (wild-type ribosome), % (test concentration not listed). E. coli WT GFP vs humanized-ribosome RFP mutants, 24 h; stronger effect = lower value; DMSO median 0, no signal -100. 350,000 tested, 1.6% active;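 active means significant combined selectivity score with lowered wild-type GFP, culture density cut under 30%, mutant RFP and density less affected; inactive means any of these conditions unmet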; further: one replicate is shown; some compounds called inactive have numbers as strong as hits
Beta cell apopt – inhibitors of cytokine-induced beta cell apoptosis, primary screen, luminescence | protection from apoptosis, % (concentration not given with the values) | 300,000 tested, 0.8% active | INS-1E cytokine-induced death, ATP luminescence, 48 h; percent of positive-control rescue, neutral wells zero | AID 435005, 2010;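 active means all replicates at 75% or more, or half of them and the mean; inconclusive means half reach 75% but not the mean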;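 further: 0% = cytokine-treated negative control wells and 100% = positive control rescue; higher means more ATP so stronger rescue from cytokine killing; wells of about 40 µL received 100 nL stock; the first replicate is given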
FGF22 binding – binders of human FGF22 protein, primary screen, FGF22 synaptogenesis inhibitor project, biophysical, thermal shift, single point | calls only at 9.99 µM | AID 651658, 2012 | recombinant FGF22 thermal shift, SYPRO orange fluorescence; percent of sucrose octasulfate shift, DMSO zero | 340,000 tested, 1.5% active;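 active means melting point raised past a set limit in the mean and every replicate; inconclusive means no clear call; three in four hits are not shown here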
Target sequence (Q9HCT0 whole entry, looked up): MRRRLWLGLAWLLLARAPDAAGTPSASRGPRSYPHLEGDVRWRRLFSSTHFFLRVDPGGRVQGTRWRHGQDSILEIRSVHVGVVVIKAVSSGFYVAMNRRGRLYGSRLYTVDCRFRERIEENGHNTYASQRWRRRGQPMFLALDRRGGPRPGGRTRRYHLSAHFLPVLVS
Calb FLC – C. albicans growth inhibition with fluconazole, primary screen, CaCi-2 strain, Alamar Blue fluorescence; C. albicans CaCi-2 (fluconazole-resistant clinical isolate) + fluconazole, 48 h; growth inhibition, % (concentration not given with the values); 300,000 tested, 0.57% active;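 active means most replicates above 75%; inconclusive means exactly half above 75%; inactive means most below 75%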;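 further: all wells also contain fluconazole at 8 µg/ml as a sub-toxic cotreatment; 0% = median of DMSO wells and 100% = median of geldanamycin control wells; wells of about 8 µL received 7.5 nL stock; the first replicate is given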
T cruzi inh – inhibitors of intracellular T. cruzi growth, primary screen, luminescence, NIH3T3 host cells | T. cruzi beta-gal in NIH3T3, 90 h | inhibition, % (no concentration beside the values) | 300,000 tested, 1.4% active | AID 1885, 2009;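 active means mean inhibition across valid replicates above about 55%, limit read from the data; inconclusive means mean below that limit but half or more replicates reach it; inactive means mean below it, under half of replicates reach it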;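 further: signal also drops with host cell toxicity which is not excluded here; 0% = plate median of DMSO wells and 100% = zero luminescence signal; higher percent means less beta-gal luminescence so fewer parasites; stock transfer was 50 nL into about 50 µL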
rRNA inh HTS OD600 – recorded beside rRNA inh HTS, whose call it bears; OD600 change, %; measured here: OD600 growth;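 optical density of the mix in the first replicate; 0 = DMSO median and -100 = no signal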
rRNA inh HTS RFP – recorded beside rRNA inh HTS, whose call it bears; RFP signal change, %; measured here: RFP humanized mutant strains;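 first replicate; 0 = DMSO median and -100 = no signal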
Starred values were filed as active, the others as inactive; i = inactive; u = inconclusive; x = no result given. An excerpt. The share of hits here may be higher or lower than overall.

canonical_smiles	ALR inh	MLL AF4-AF9 inh	RanGTP-Imp inh	rRNA inh HTS	rRNA inh HTS OD600	rRNA inh HTS RFP	Beta cell apopt	FGF22 binding	Calb FLC	T cruzi inh
NC(=O)CSc1ccc(-c2ccc(F)cc2)nn1	-4	-4.3	2.0	22	21	0.2	1	i	8	-1
O=C(CCn1cccc1)Nc1ccc(OC(F)(F)F)cc1	8	5.1	2.5	-2	-1	3.8	-2	i	0	3
CCN1/C(=C/C(=O)c2ccco2)Sc2ccccc21	28	x	7.9	-31	-27	6.2	1	x	u	10
COc1cccc(CNC(=O)CCC2CCCN(C(=O)c3cc(C)on3)C2)c1 (stereo not drawn)	29	-0.8	0.7	-1	-3	4.2	0	i	-3	4
CCN1CN(Cc2ccco2)CNC1=S	-5	x	2.1	x	x	x	-7	x	27	-2
Cc1ccc(S[C@@H](CCN2CC[C@H](O)CCC2=O)c2ccccc2)cc1	28	0.6	-0.3	-11	-21	12	-8	i	1	-18
O=C(O)Cc1sc(Nc2ccccc2)nc1-c1cccs1	43	x	u	-18	-36	2.9	-4	i	-8	5
CN(Cc1ccon1)C(=O)CC1C(=O)NCCN1CC1CCCCC1 (stereo not drawn)	-32	-16	2.5	5	8	1.0	-10	i	-12	-9
Cc1ccccc1OCC(=O)NNC(=O)Cc1ccc(S(=O)(=O)N2CCOCC2)s1	-1	0.1	0.4	3	2	0.0	x	i	10	-6
CCCCNC(=O)CSc1nc2cc3c(cc2c(=O)n1CCCN(CC)CC)OCO3	-2	x	2.4	x	x	x	1	x	-20	3
CC1O[C@@H](O[C@H](C)CC[C@@H](C)O[C@H]2OC(C)[C@@H](O)C[C@H]2O)C(O)C[C@H]1O (stereo partly drawn)	1	-2.3	-1.4	6	5	-6.7	x	i	2	-6
COC(=O)C1=C(C(=O)OC)SC2(S1)C(C(=O)OC)=C(C(=O)OC)SC1=C2c2cccc(C)c2NC1(C)C	-4	x	-3.0	x	x	x	5	x	12	26
O=C(CSc1ncnc2sccc12)NC1CCS(=O)(=O)C1 (stereo not drawn)	-1	8.9	x	19	13	5.3	-4	i	x	x
CCCC1S/C(=N/N=C/c2ccco2)NC1=O (stereo not drawn)	10	x	-0.1	x	x	x	-5	x	1	-18
Cc1nc2c(c(N3CCOCC3)n1)OCC(=O)N2	-1	x	2.2	16	10	-0.7	3	x	-1	-4
CN(C(=O)c1nn(C)c2c1CSc1ccccc1-2)c1ccc(F)cc1	-1	-12	3.4	9	-7	-10.0	2	i	2	13
Cc1cccc(N=Nc2c(O)[nH]c3ccc(F)cc23)c1	0	0.1	-7.5	-29*	14*	8.5*	-9	i	12	15
O=C(Nc1ccc2c(c1)OCO2)c1ccccc1SCC(=O)N1CCCC1	-2	x	0.4	x	x	x	-3	x	-2	-1
C/C(=N/NC(=O)CSc1nc2ccccc2s1)c1ccncc1	6	2.5	-2.1	-27	-27	-3.5	x	i	15	3
O=C(CN1CCN(S(=O)(=O)c2cc(C(F)(F)F)ccc2Cl)CC1)N1CCc2ccccc2C1	-3	-42	x	-13	-51	-0.2	-6	i	x	x

Next section:
canonical_smiles	ALR inh	MLL AF4-AF9 inh	RanGTP-Imp inh	rRNA inh HTS	rRNA inh HTS OD600	rRNA inh HTS RFP	Beta cell apopt	FGF22 binding	Calb FLC	T cruzi inh
NNC(=O)CNC(=O)C12CC3CC(CC(C3)C1)C2	x	-1.7	3.1	-2	-4	-8.0	8	i	-4	-4
CCN(CC(=O)Nc1ccc(NC(C)=O)cc1)C(=O)c1ccc2ccccc2c1	-8	2.5	2.3	-4	-4	-1.8	x	i	-6	-4
O=C(O)CCCN1C(=O)/C(=C\c2ccccc2OCc2ccccc2)SC1=S	13	1.5	-1.9	-38	-64	-13	-7	i	4	8
O=C(Nc1ccc(N2CCN(C(=O)c3ccco3)CC2)c(Cl)c1)c1cc2ccccc2o1	5	x	11	x	x	x	47	x	19	55*
CCN(CCO)C(=O)c1ccc2oc(Cc3ccc(Cl)cc3)nc2c1	x	0.4	-4.7	0	1	1.6	x	i	5	-12
CC(=O)C1C(c2ccc(F)cc2)c2c(noc2C)CC1(C)O (stereo not drawn)	-9	1.5	2.7	3	4	1.9	-4	i	-4	7
O=C(C1CCCO1)N1CCN(S(=O)(=O)c2ccc(Br)cc2)CC1 (stereo not drawn)	-30	0.7	6.1	3	2	3.5	x	i	-4	11
N#Cc1cc(-c2ccccc2)nnc1Sc1ccccc1	1	x	13	x	x	x	-5	x	-1	-2
N#CCc1ccc(NC(=O)Cn2c(=O)oc3ccccc32)cc1	0	-0.4	2.3	8	12	-1.3	-5	i	-16	1
COc1ccc(Cl)cc1NC(=O)CN(C(=O)c1ccco1)C1CCCCC1	6	x	1.8	x	x	x	0	x	u	10
Cc1ccc(-c2nn(CC(=O)NCc3cc(-c4nn(C)c(=O)c5ccccc45)ccc3C)c(=O)c3ccccc23)cc1	1	x	-1.0	x	x	x	41	x	-11	-10
CN(C)/C=C/C(=O)c1cnc(-c2ccc(Cl)cc2)s1	-20	-2.1	-1.7	4	0	1.2	-3	i	-5	-14
COC(=O)CN1C(=O)C2(C(C#N)=C(N)Oc3cc(C)oc(=O)c32)c2ccccc21 (stereo not drawn)	4	x	-2.3	x	x	x	-5	x	3	-7
Cc1ccccc1CSCC(=O)NNC(=S)NCC1CCCO1 (stereo not drawn)	72	-2.3	-0.8	4	1	-2.8	-2	i	-19	-19
O=C(NCc1ccccc1F)C(c1ccccc1)c1ccccc1	-1	-3.1	3.9	-3	-21	-0.9	0	i	-5	6
Clc1nc2c(ccc3ccccc32)[nH]1	x	-1.0	-0.2	-14	1	1.3	-2	i	-2	-7
CC(CNC(=O)CCS(=O)(=O)c1cc2c(cc1Cl)NC(=O)CO2)c1ccccc1 (stereo not drawn)	-8	-1.3	8.2	2	6	2.0	-2	i	-4	-3
Cc1noc(C)c1COc1cccc(C(=O)OC(C)C#N)c1 (stereo not drawn)	9	-1.2	1.2	-8	-16	-1.6	-1	i	3	-11
COc1ccc(CNC(=O)CN(Cc2ccco2)C(=O)CNS(=O)(=O)c2ccc(F)cc2)cc1	2	-2.1	1.0	10	5	2.9	3	i	0	4
CC(=O)c1ccc(NC(=S)NCCCN2CCOCC2)cc1	-11	9.1	4.0	18	12	2.0	1	i	-4	-9

The closing 2 compounds of the section before lead into the next:
canonical_smiles	ALR inh	MLL AF4-AF9 inh	RanGTP-Imp inh	rRNA inh HTS	rRNA inh HTS OD600	rRNA inh HTS RFP	Beta cell apopt	FGF22 binding	Calb FLC	T cruzi inh
COc1ccc(CNC(=O)CN(Cc2ccco2)C(=O)CNS(=O)(=O)c2ccc(F)cc2)cc1	2	-2.1	1.0	10	5	2.9	3	i	0	4
CC(=O)c1ccc(NC(=S)NCCCN2CCOCC2)cc1	-11	9.1	4.0	18	12	2.0	1	i	-4	-9
COc1ccc(S(=O)(=O)N2CCOCC2)cc1N(C)S(=O)(=O)c1ccc(C)cc1	-2	-8.5	4.0	-4	-11	-1.0	2	i	-1	7
CC(CNC(=O)c1cc(COc2c(F)cccc2F)on1)Oc1cccnc1 (stereo not drawn)	3	-4.6	1.0	-5	-8	-1.1	4	i	13	-4
CCOC(=O)Cn1cc(C#N)c2ccccc21	-3	-0.9	1.5	14	7	1.3	0	i	-2	-9
COc1c(O)cc2oc(-c3ccc(O)c(O)c3)cc(=O)c2c1O	99*	-4.6	-3.4	-23	-45	-30	11	i	-15	-6
COCCNC(=O)NC(=O)COC(=O)Cc1ccc2c(c1)OCCO2	-6	x	-0.6	x	x	x	0	x	-3	2
Cc1ccc(-n2nc3c(=O)n(CC(=O)NCCc4ccco4)nc(C)c3c2C)cc1	x	1.9	u	1	9	-2.7	2	i	6	8
COc1ccc(Oc2ccc(N/C=C3\CCCC3=O)cc2)cc1	21	x	4.0	x	x	x	10	x	-19	-2
N#CCCN1CCN(Cn2c3ccccc3c3ccccc32)CC1	-23	x	0.6	x	x	x	-2	x	x	9
CC(Sc1nc2c(cc1C#N)CCCCC2)C(=O)O (stereo not drawn)	-4	-2.4	1.2	3	-2	1.4	4	i	-1	1
COc1cc(OC)c(C2N(c3ccc(Cl)c(Cl)c3)C(=O)C3CCCN32)cc1OC (stereo not drawn)	-23	x	1.5	x	x	x	-3	x	2	1
Cc1ccc(C)c(S(=O)(=O)N2CCN(C(=O)C3CCN(c4ncnc5sc(C)c(C)c45)CC3)CC2)c1	0	-1.3	4.9	-1	-15	6.0	51	i	-1	43
O=C(CCC1CCCC1)NCCCNC(=O)CCC1CCCC1	-2	-0.8	x	-12	-17	-0.6	0	i	x	0
NC(=O)CSc1nnc(Cc2ccc3c(c2)OCO3)n1C1CCCCC1	-3	2.9	2.1	x	x	x	-3	i	-27	6
CCCSc1nnc(N)s1	-5	1.7	-0.8	7	8	2.3	-1	i	-3	-17
O=C(N/N=C/c1cn(-c2ccccc2)nc1-c1cccnc1)c1ccccc1	-6	5.7	5.3	-31	-59	-0.4	13	i	1	0
Cc1cc(=O)oc(C)c1C(=O)N[C@@H](Cc1ccccc1)C(=O)O	x	1.5	-2.1	-3	12	0.1	2	i	-11	1
O=C(C1CC(=O)N(c2ccc3c(c2)OCCO3)C1)N1CCN(c2ccccc2)CC1 (stereo not drawn)	x	0.3	-0.2	-2	-16	-0.8	-6	x	31	-5
CCOC(=O)C1=C(C)N(CCCC(=O)O)C(=O)NC1c1ccccc1OS(=O)(=O)c1ccc([N+](=O)[O-])cc1 (stereo not drawn)	-14	3.8	-0.9	0	21	-1.3	-6	i	10	-14
CCN(CC)S(=O)(=O)c1cc(NC(=O)C2Cc3ccccc3C(=O)O2)ccc1C (stereo not drawn)	-1	0.5	-0.5	-31	-43	-1.9	1	i	0	10
O=c1cc[nH]c2ccc([N+](=O)[O-])cc12	-12	3.0	3.6	5	-7	-2.2	4	i	6	-3
CN(C)CCCN(C(=O)c1ccc(S(=O)(=O)N2CCc3ccccc3C2)cc1)c1nc2c(F)cccc2s1	-30	10	1.5	-47*	-15*	-5.2*	-4	x	-10	42
CC(=O)NC[C@H]1CN(c2ccc(N3CCOCC3)c(F)c2)C(=O)O1	2	x	-3.3	x	x	x	x	x	-12	-9
Cc1ccc(NC(=O)C(C)OC(=O)Cn2[nH]c(=O)c3ccccc3c2=O)cc1 (stereo not drawn)	-2	-0.3	3.9	2	6	-1.6	-4	i	-17	-14

Source: PubChem (Broad Institute)
